VDR inhibitor – Inhibitors of the vitamin D receptor (VDR): qHTS. Vitamin D3 receptor (Homo sapiens), P11473. VDR-SRC2-3 peptide fluorescence polarization, 2 h. Potency, µM, inactives show max response, negative = inhibition, usual class: inhibitors. 400,000 compounds, 0.93% hits; active = well fitted inhibition curve with a large enough effect; inconclusive = small, poorly fitted or top-dose-only effect, or another doubt; inactive = no such curve, though single readings can be large or run the other way; also: series mostly up to about 120 µM
Target sequence (P11473 whole entry, looked up): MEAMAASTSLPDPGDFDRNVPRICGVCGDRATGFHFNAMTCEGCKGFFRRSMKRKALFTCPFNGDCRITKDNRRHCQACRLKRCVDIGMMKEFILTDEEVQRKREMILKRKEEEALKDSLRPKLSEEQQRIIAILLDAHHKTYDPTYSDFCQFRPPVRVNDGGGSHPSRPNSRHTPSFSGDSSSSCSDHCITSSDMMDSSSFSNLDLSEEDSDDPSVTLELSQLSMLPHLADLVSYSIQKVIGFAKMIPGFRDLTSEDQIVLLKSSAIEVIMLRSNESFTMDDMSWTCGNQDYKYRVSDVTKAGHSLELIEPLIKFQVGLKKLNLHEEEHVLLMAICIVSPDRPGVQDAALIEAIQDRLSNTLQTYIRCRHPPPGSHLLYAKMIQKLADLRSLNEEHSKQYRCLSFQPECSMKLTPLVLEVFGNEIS
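Reagent solutions, kept cold and dark, are dispensed first; compounds are then pinned in at 23 nl, plates briefly spun, and incubated 2 h at ambient temperature. Inhibition of VDR–SRC2-3 peptide binding is read by fluorescence polarization.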
* hit, by the source's call; ? = inconclusive; & = joins results of further samples. % is scaled to controls: 0 for no effect and ±100 for the full control effect; potency is read from the fitted curve at half-maximal effect. Not all compounds are listed; rates above refer to the full screens.

SMILES	VDR inhibitor
CN1C(=O)C(C)(C2=CCCCC2)C(=O)NC1=S (stereo not given)	-6%
COc1cc(C2c3cc4c(c(O)c3CC3COC(=O)C32)OCO4)cc(OC)c1O (stereo not given)	0%
Cc1ccc(CN2C(=O)c3ccccc3Sc3ccc(C(=O)N4CCC5(CC4)OCCO5)cc32)cc1	6%
CN(C)c1ccc(N=Cc2c(O)n(CCC3=CCCCC3)c(=O)[nH]c2=O)cc1	-24%
C(=NN1CCCCCC1)c1c[nH]c2ccccc12	3%
COc1ccc(C(=O)C2CCCN(C3CSCCSC3)C2)c(C)c1 (stereo not given)	-17%
COC(=O)C1=C(c2cc3ccccc3s2)C[C@@H]2CC[C@H]1N2C(=O)NC1CCCCC1	-19%
O=C1NC(=O)N(c2ccccc2)C(=O)/C1=C/c1coc2ccc(O)cc2c1=O	50µM*
BrCC(Br)(Br)Br	6%
COc1cc2c(cc1OC)[C@H]1C(=O)c3ccc4c(c3O[C@H]1CO2)C[C@@H](C(C)(C)O)O4	-1%
CC[C@H](C)[C@H](NC(=O)[C@H](CCCN=C(N)N)NC(=O)[C@H](CCCN=C(N)N)NC(=O)[C@H](CC(C)C)NC(=O)[C@H](Cc1ccccc1)NC(=O)CNC(=O)CNC(=O)[C@@H](N)Cc1ccc(O)cc1)C(=O)O	-2%
COc1cccc(Oc2c(C)oc3cc(OC(=O)N(C)C)ccc3c2=O)c1	-3%
Cc1ccc(NC(=O)CN2C(=O)CN=C(c3ccccc3)c3ccccc32)c(C)c1	-16%
NP(=O)(OCCCc1ccccc1)Oc1ccc(Cl)cc1 (stereo not given)	-5%
COc1ccc(C(=O)N/N=C/C23CC[C@@H](O)CC2(O)CC[C@@H]2[C@@H]3CCC3(C)C(C4=CC(=O)OC4)CCC23O)cc1 (stereo not given in full)	12%
CCn1ccnc1CN1CCCC(C(=O)c2cc(F)ccc2OC)C1 (stereo not given)	5%
Nc1cnn(-c2ccccc2)c(=O)c1Cl	-25%
COc1ccc(OCC(=O)N2CCN(C/C=C/c3ccccc3)CC2)cc1	-15%
COc1ccc(N2C(=O)NC(=O)/C(=C\c3ccccc3[N+](=O)[O-])C2=O)cc1	50µM*
CC/C(=N\NC(=O)c1ccccc1)c1c(O)n(Cc2ccccc2)c(=O)[nH]c1=O	27%
COc1ccc(CC(C)Nc2cccc(F)c2)cc1 (stereo not given)	24%
O=c1[nH]c(=O)n(-c2ccccc2F)c(O)c1/C=C1\C=Nc2ccccc21	-17%
Cc1ccc(Cl)c(O)c1	13%
CCN(CC)C(=O)c1ccc(N2C(=O)C3CC=C(Cl)CC3C2=O)cc1 (stereo not given)	2%
O=C(CSc1ccccc1)N1CCC2(CC1)OCCO2	-20%
CCOC(=O)c1c(N)n(CCN2CCCCC2)c2nc3ccccc3nc12	2%
COc1cc2c(cc1O)C[C@H]1c3c(cc(O)c(OC)c3-2)CCN1C	-3%&2%
O=c1c2ccccc2nc(/C=C/c2ccccc2F)n1-c1ccccc1O	-7%
CC(C)=CCN1CC[C@@]2(C)c3cc(O)ccc3CC1C2C (stereo not given in full)	-16%
CCC(=Nc1ccccc1NC(C)=O)c1c(O)n(C)c(=O)n(C)c1=O	-11%
N#CN	3%
COc1ccc(NC(=O)c2cn(CCC#N)nc2-c2cccc([N+](=O)[O-])c2)cc1	3%
Cc1cccc(CN2CCN(Cc3ccc(Cl)cc3)CC2)c1	-3%
COC(=O)C1=C(c2cc3ccccc3s2)C[C@@H]2CC[C@H]1N2C(=O)N1CCOCC1	10%
O=C(COC(=O)Cc1ccccc1)Nc1ccc(SC(F)F)cc1	19%
CCn1c(O)c(/C(C)=N/N2CCCCC2c2cccnc2)c(=O)[nH]c1=S (stereo not given)	-10%
CN1C(=O)C(C2(C#N)CCCCC2)C(=O)N(C)C1=O	0%
C[C@]12CC[C@H](O)C[C@H]1CC[C@@H]1[C@@H]2C[C@@H](O)[C@]2(C)[C@@H](C3=CC(=O)OC3)CC[C@]12O	-3%
O=C(NC(=O)N1CCC2(CC1)OCCO2)c1ccc(Cl)cc1	3%
CN1CCC2=C[C@@H](O)[C@@H]3OC(=O)c4cc5c(cc4C3C21)OCO5 (stereo not given in full)	-4%
COc1cc(/C=C2/C(=O)NC(=O)N(c3ccccc3)C2=O)ccc1O	-13%
CC1CN=C(Nc2ccccc2)S1 (stereo not given)	9%
COC(=O)C1=C(c2cc3ccccc3o2)C[C@@H]2CC[C@H]1N2C(=O)N1CCOCC1	-14%
CN(C)CCN=Cc1c(O)n(Cc2ccc3c(c2)OCO3)c(=S)[nH]c1=O	-17%
O=C(Cc1ccccc1)OCCNC(=O)c1cccnc1	16%
CC1=CC(=O)NP(=O)(Oc2ccc3ccccc3c2)N1 (stereo not given)	-10%
O=C(Nc1cccc(OC(=O)N2CCOCC2)c1)N1CCOCC1	-9%
CCCN1C2CCCC1CC(NC(C)=O)C2 (stereo not given)	-2%
Cc1ccsc1C(=O)C1CCCN(Cc2ccccc2O)C1 (stereo not given)	1%
COc1cc(C(=S)N2CCOCC2)cc(OC)c1OC(=O)Cc1ccccc1	-1%

Copied from the entries so far for reference:
SMILES	VDR inhibitor
CCC(=Nc1ccccc1NC(C)=O)c1c(O)n(C)c(=O)n(C)c1=O	-11%
N#CN	3%
COc1ccc(NC(=O)c2cn(CCC#N)nc2-c2cccc([N+](=O)[O-])c2)cc1	3%
Cc1cccc(CN2CCN(Cc3ccc(Cl)cc3)CC2)c1	-3%
COC(=O)C1=C(c2cc3ccccc3s2)C[C@@H]2CC[C@H]1N2C(=O)N1CCOCC1	10%
O=C(COC(=O)Cc1ccccc1)Nc1ccc(SC(F)F)cc1	19%
CCn1c(O)c(/C(C)=N/N2CCCCC2c2cccnc2)c(=O)[nH]c1=S (stereo not given)	-10%
CN1C(=O)C(C2(C#N)CCCCC2)C(=O)N(C)C1=O	0%
C[C@]12CC[C@H](O)C[C@H]1CC[C@@H]1[C@@H]2C[C@@H](O)[C@]2(C)[C@@H](C3=CC(=O)OC3)CC[C@]12O	-3%
O=C(NC(=O)N1CCC2(CC1)OCCO2)c1ccc(Cl)cc1	3%
CN1CCC2=C[C@@H](O)[C@@H]3OC(=O)c4cc5c(cc4C3C21)OCO5 (stereo not given in full)	-4%
COc1cc(/C=C2/C(=O)NC(=O)N(c3ccccc3)C2=O)ccc1O	-13%
CC1CN=C(Nc2ccccc2)S1 (stereo not given)	9%
COC(=O)C1=C(c2cc3ccccc3o2)C[C@@H]2CC[C@H]1N2C(=O)N1CCOCC1	-14%
CN(C)CCN=Cc1c(O)n(Cc2ccc3c(c2)OCO3)c(=S)[nH]c1=O	-17%
O=C(Cc1ccccc1)OCCNC(=O)c1cccnc1	16%
CC1=CC(=O)NP(=O)(Oc2ccc3ccccc3c2)N1 (stereo not given)	-10%
O=C(Nc1cccc(OC(=O)N2CCOCC2)c1)N1CCOCC1	-9%

Next section.
SMILES	VDR inhibitor
Cn1nc(N)c2c1N=P(N1CCOCC1)(N1CCOCC1)N=C2c1ccccc1	5%
COC1=CC23CCCN2CCc2cc4c(cc2C3C1O)OCO4 (stereo not given)	-23%
O=C(O)CCCC[C@H]1SC[C@H]2NC(=O)N[C@@H]21	-3%
CN1CCc2cccc(Cl)c2CC1	2%&0%
Cc1cccc(N2C(=O)/C(=C/c3ccc(CN(CCC#N)S(C)(=O)=O)o3)C(=O)NC2=S)c1	?
CCCC[N+]12C3C[C@H](C4[C@H](O)[C@]5(C[C@@H]41)c1ccccc1N(C)[C@@H]35)[C@H](CC)[C@H]2O (stereo not given in full)	-16%
COc1ccc(C2=NCC(=S)Nc3ccc(Cl)cc32)cc1Cl	-10%
CCN(C(C)=O)c1cccc(-c2ccnc3c(C#N)cnn23)c1	-2%
COc1ccccc1C1=NCc2nnc(C)n2-c2ccc(Cl)cc21	3%
CCCCCCOc1ccc(CN2CCN(CC)CC2)cc1	13%

Taken from the entries so far (2 entries):
SMILES	VDR inhibitor
COc1ccccc1C1=NCc2nnc(C)n2-c2ccc(Cl)cc21	3%
CCCCCCOc1ccc(CN2CCN(CC)CC2)cc1	13%

(more compounds)
SMILES	VDR inhibitor
CC(C)(C)N1Cc2ccccc2C1=N	-7%
CCC(COC(=O)NC)NC(=O)Oc1cccc(C)c1 (stereo not given)	3%
Cn1cc(C(=O)OCC(=O)N2CCCC2)c2ccccc21	-5%
CCCC(=O)O[C@@H]1[C@@H](C)[C@@]2(O)[C@@H](C=C(CO)C[C@]3(O)C(=O)C(C)=C[C@@H]23)[C@@H]2C(C)(C)[C@]12OC(=O)CCC	3%
CCOC(=O)c1c(C)[nH]c(C)c1C(=O)C(Cc1ccccc1)N(C)C (stereo not given)	2%
FC(F)(F)c1ccc2c(c1)nnn2C1CCN(Cc2nnnn2Cc2ccccc2)CC1	7%
CC(=O)OCC1=C(C(=O)O)N2C(=O)C(NC(=O)CCCC(N)C(=O)O)C2SC1 (stereo not given)	?
COc1c(C)cc(C(=O)C2CCCN(Cc3ccccn3)C2)cc1C (stereo not given)	18%
CC[C@H](OC(C)=O)C(C[C@H](C)N(C)C)(c1ccccc1)c1ccccc1	-10%
COP(=O)(OC)Oc1ccc(C(O)C(Cl)(Cl)Cl)cc1 (stereo not given)	2%
CC(C(=O)c1c[nH]c2ccccc12)N1CCOCC1 (stereo not given)	7%
CCCCC/C=C\C/C=C\C/C=C\C/C=C\CCCC(=O)Nc1ccc(O)cc1	-1%
CC(C)(C)[C@]1(O)C[C@@H]2OC(=O)C[C@@]23C(=O)O[C@@H]2OC(=O)[C@@H](O)C213 (stereo not given in full)	0%
COc1cc(CN2CCNCC2)cc(OC)c1OC	-16%
CCCCn1c(O)c(C(CC)=NCCCN(C)C)c(=O)[nH]c1=O	22%
Cc1occc1C(=O)N1CCC2(CC1)OCCO2	4%
C[C@@]12CCC(O)C[C@H]1CCC1C2CC[C@]2(C)C(=O)CCC12 (stereo not given in full)	2%
COC(=O)C1=C(c2cccc(C#N)c2)C[C@@H]2CC[C@H]1N2C(=O)N1CCc2cc(OC)c(OC)cc2C1	-2%
C[n+]1c(-c2ccccc2)c2cc(N)ccc2c2ccc(N)cc21	-16%
CC(=O)O[C@]1(C)C(=O)OC/C2=C/CN(C)CCC(OC(=O)[C@@](O)(C(C)O)C[C@H]1C)C2=O (stereo not given in full)	12%
CCC(C=C[C@@H]1OC(=O)C=C[C@H]1C)=C[C@H](C)CC=CC(C)=C[C@@H](C)C(=O)[C@@H](C)[C@H](O)[C@@H](C)CC(C)=CC(=O)O	1.6µM*
CNC(C)Cc1ccccc1 (stereo not given)	-12%
COC(=O)C1C2c3ccccc3OC1(C)N=c1s/c(=C/c3cnn(C)c3C)c(=O)n12 (stereo not given)	-19%
CN1C2CCC1CC(OC(=O)C1CCC(C(=O)OC3CC4CCC(C3)N4C)(c3ccccc3)c3ccccc31)C2 (stereo not given)	-9%
Oc1ccc(Cl)cc1Cc1cc(Cl)ccc1O	?
CC(C)(CN)CC(=O)O	-9%
O=[N+]([O-])c1cc([As](=O)(O)O)ccc1O	-22%&-3%
O=C(COc1ccc(Cl)cc1)N1CCN(Cc2ccc([N+](=O)[O-])cc2)CC1	-7%
CCCCn1c(O)c(C(CC)=NCc2cccnc2)c(=O)[nH]c1=O	7%
O=C(O)c1ccc2c(c1)C1C(Cl)C(Sc3ccccc3[N+](=O)[O-])CC1C(c1cccc([N+](=O)[O-])c1)N2 (stereo not given)	7%
CC[C@H](C)/C=C(C)/C=C/C1=CC2=C(Cl)C(=O)[C@](C)(OC(C)=O)C(=O)C2=CO1	?
CCCCn1c(O)c(C=NCCCn2ccnc2)c(=O)[nH]c1=O	-8%
O=C(Cc1ccc(Cl)c(Cl)c1)NCC1(N2CCOCC2)CCCCC1	-16%
COC(=O)C12CCc3c(ccc4cc(OC)ccc34)C1=CC(=O)C2 (stereo not given)	4%
O=C(c1cc(S(=O)(=O)N2CCCCC2)ccc1F)N1CCC2(CC1)OCCO2	6%
COC(=O)N1CCC2(CCN(CC(C)C)CC2)CC1	-11%
CNC(C(=O)c1ccccc1)C(OC)c1ccccc1 (stereo not given)	2%
CCOC(=O)c1c(/N=C/c2c(O)n(-c3ccccc3F)c(=S)[nH]c2=O)sc2c1CCCC2	?
CN1C(=O)C(=Cc2ccc(N3CCCCCC3)o2)C(=O)N(C)C1=S	19%
NC1CCCC[C@H]1N (stereo not given in full)	3%&-9%
CCCCC(=O)N/N=C/c1c(O)n(CC)c(=S)[nH]c1=O	-19%
Cc1ccc2c(c1)[C@@H]1CN(C)CC[C@@H]1N2C(=O)Nc1cccc(C(F)(F)F)c1	8%
CC(=O)c1ccc2c(c1)C1C(Cl)C(Sc3ccccc3[N+](=O)[O-])CC1C(C(=O)O)N2 (stereo not given)	-1%
CCc1cccc(NC(=O)CN2C(=O)CN=C(c3ccccc3F)c3cc(Cl)ccc32)c1	18%
CNC(C)[C@H](O)c1ccccc1 (stereo not given in full)	14%
O=C1C(Cl)=C(Cl)C(=O)C(Cl)=C1Cl	0.71µM*
COc1cccc(CNCCc2ccccc2)c1OC	-22%
CN(C)[C@@H]1C(=O)C(C(N)=O)=C(O)[C@@]2(O)C(=O)C3=C(O)c4c(O)ccc(Cl)c4[C@@](C)(O)[C@H]3C[C@@H]12	8%
COC(=O)C1=C(c2ccccc2OCc2ccccc2)C[C@@H]2CC[C@H]1N2C(=O)NCc1ccc(OC)c(OC)c1	-16%
CN(Cc1ccccc1)C(=C(Cl)Cl)/C(=C1/NCCN1Cc1ccc(Cl)nc1)[N+](=O)[O-]	17%

(next part)
SMILES	VDR inhibitor
CCOc1ccc(N2C(=O)/C(=C/c3ccc(C)o3)C(=O)NC2=S)cc1	?
CN(C)C(=O)Oc1ccc(OCc2cccc[n+]2C)cc1	-3%
Cc1ccc(S(=O)(=O)N(C)C)cc1NC(=O)C(C)[N+]12CCN(CC1)CC2 (stereo not given)	-9%
CC(=O)N1CN2CN(C1)CN(C(C)=O)C2	6%
CCNCCNc1ccc([N+](=O)[O-])c2cccnc12	8%
C#C[C@]1(O)CC[C@H]2[C@@H]3CCC4=Cc5nc6nc7ccccc7n6cc5C[C@]4(C)[C@H]3CC[C@@]21C	?
